rRNA inh HTS: selective bacterial rRNA inhibition in E. coli; E. coli WT GFP vs humanized-ribosome RFP mutants, fluorescence, 24 h; stronger effect = lower value; DMSO median 0, no signal -100; AID 720706; 1.6% of 350,000 active; GFP signal change (wild-type ribosome), % (no concentration beside the values);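 active = significant combined selectivity score with lowered wild-type GFP, culture density cut under 30%, mutant RFP and density less affected; inactive = any of these conditions unmet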; note: one replicate is shown; some compounds called inactive have numbers as strong as hits
rRNA inh HTS OD600: second read-out of rRNA inh HTS, no call of its own (marks repeat the call); OD600 change, %; measured here: OD600 growth;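 optical density of the mix in the first replicate; 0 = DMSO median and -100 = no signal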
rRNA inh HTS RFP: second read-out of rRNA inh HTS, no call of its own (marks repeat the call); RFP signal change, %; measured here: RFP humanized mutant strains;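 first replicate; 0 = DMSO median and -100 = no signal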
* hit, by the source's call; & = joins results of further samples. An excerpt, so the mix of outcomes need not match the whole.

SMILES	rRNA inh HTS	rRNA inh HTS OD600	rRNA inh HTS RFP
C[C@@H]1CN([C@@H](C)CO)S(=O)(=O)c2ccc(-c3ccccc3)cc2O[C@@H]1CN(C)C(=O)C1CC1	-3	-13	4.0
C[C@H](CO)N1C[C@H](C)[C@@H](CN(C)C(=O)Nc2ccc(F)cc2)Oc2cc(-c3ccc(F)cc3)ccc2S1(=O)=O	0	-6	2.2
COc1ccc(CN2CC3(CCN(C(=O)C4CCC4)CC3)c3c(n(C)c4cc(OC)ccc34)[C@H]2CO)cc1	4	-17	1.5
CO[C@@H]1CN(C)C(=O)c2ccc(NC(=O)c3ccc(Oc4ccccc4)cc3)cc2OC[C@@H](C)N(C(C)=O)C[C@H]1C	0	1	-2.2
CN(C)C(=O)c1ccc(-c2ccc(C3[C@@H]4CN(C(=O)c5cnccn5)C[C@H]3N4)cc2)cc1 (stereo partly drawn)	4	20	-1.5
O=C(C[C@H]1C[C@H]2c3cc(NC(=O)Nc4ccc(C(F)(F)F)cc4)ccc3O[C@H]2[C@@H](CO)O1)NCc1cccnc1	3	3	-1.0
C[C@H](CO)N1C[C@H](C)[C@@H](CN(C)Cc2ccncc2)Oc2cc(-c3ccncc3)ccc2S1(=O)=O	-6	-15	-4.6
C[C@H]1CN([C@@H](C)CO)S(=O)(=O)c2ccc(C#CC3CC3)cc2O[C@H]1CN(C)Cc1cncnc1	-3	-2	4.2
C[C@@H]1CN([C@@H](C)CO)S(=O)(=O)c2ccc(-c3ccncc3)cc2O[C@@H]1CN(C)C(=O)C1CCCCC1	-6	-8	-0.2
CC(C)NC(=O)N(C)C[C@@H]1Oc2ccc(NS(=O)(=O)c3ccc(F)cc3)cc2C(=O)N([C@H](C)CO)C[C@H]1C	3	4	0.5
Cc1noc(C)c1S(=O)(=O)N(C)C[C@H]1Oc2c(NC(=O)c3nc4ccccc4s3)cccc2C(=O)N([C@H](C)CO)C[C@H]1C	-3	2	5.1
CCC(=O)Nc1ccc2c(c1)OC[C@H](C)N(CC1CC1)C[C@H](C)[C@@H](OC)CN(C)C2=O	2	-4	-2.5
Cc1ccccc1-c1ccc(C2[C@@H]3CN(Cc4cccnc4)C[C@H]2N3)cc1 (stereo partly drawn)	6&-61	-15&-77	13&-16
O=C(C[C@H]1C=C[C@@H](NC(=O)C2CCOCC2)[C@@H](CO)O1)Nc1nccs1	1	5	-1.0
Cc1noc(C)c1NC(=O)N(C)C[C@@H]1OCCCC[C@H](C)Oc2ccc(NC(=O)c3ccccc3)cc2C(=O)N([C@H](C)CO)C[C@@H]1C	-3	-2	-1.6
C/C=C/c1ccc([C@@H]2[C@@H](CN(C)C(C)=O)N(C(=O)C3CC3)[C@H]2CO)cc1	3	10	-2.7
CN(C[C@H]1[C@@H](c2ccccc2)[C@@H](CO)N1C(=O)C1CCC1)C(=O)c1ccncc1	1	4	-1.4
CCCN1C[C@H](C)[C@H](OC)CN(C)C(=O)c2cc(NC(=O)C3CCC3)ccc2OC[C@H]1C	1	5	-0.5
CN(C[C@H]1N[C@H](CO)[C@H]1c1ccc(C2=CCCCC2)cc1)S(C)(=O)=O	2	-7	-3.9
C[C@H](CO)N1C[C@H](C)[C@H](CN(C)C)Oc2ccc(NC(=O)Nc3ccccc3)cc2CC1=O	10	17	-0.9
C[C@@H]1CN([C@@H](C)CO)S(=O)(=O)c2ccc(C3=CCCC3)cc2O[C@@H]1CN(C)C(=O)C1CC1	-2	1	0.7
CN(C)C(=O)c1cccc(-c2ccc(C3[C@H]4CNC[C@@H]3N4CC3CCCCC3)cc2)c1 (stereo partly drawn)	4&8	4&-1	0.8&9.0
OC[C@H]1[C@H](c2ccc(-c3cccnc3)cc2)[C@@H]2CN(Cc3ccccn3)CCCCN12	1	0	-0.7
CN(C)c1ccc2c(c1)[C@H]1C[C@H](CC(=O)N3CCCCC3)O[C@H](CO)[C@H]1O2	3	8	2.0
O=C(NCc1ccccn1)[C@H]1[C@H](CO)[C@H]2Cn3c(cccc3=O)[C@@H]1N2CC1CCCC1	2	4	-1.9
C[C@H](CO)N1C[C@H](C)[C@H](CN(C)C(=O)Nc2ccc(C(F)(F)F)cc2)Oc2ccc(NC(=O)Cc3ccccc3)cc2C1=O	-9	-5	-0.6
O=C(c1ccc2c(c1)OCO2)N1CC(=O)N2[C@@H](CO)[C@H](c3ccc(C#Cc4ccccc4)cc3)[C@@H]2C1	5	-8	22
CC(C)CC#Cc1ccc2c(c1)O[C@H](CN(C)Cc1ccccc1)[C@H](C)CN([C@H](C)CO)S2(=O)=O	-8	-19	7.0
CO[C@H]1CN(C)C(=O)c2cc(NS(C)(=O)=O)ccc2OC[C@@H](C)N(Cc2cccnc2)C[C@@H]1C	1	4	-1.7
O=C(C1CCCC1)N1[C@H](CO)[C@@H]2c3ccccc3NC[C@@H]21	1	0	2.2

Single records (already shown). Values in the order: rRNA inh HTS | rRNA inh HTS OD600 | rRNA inh HTS RFP
C[C@H](CO)N1C[C@H](C)[C@H](CN(C)C(=O)Nc2ccc(C(F)(F)F)cc2)Oc2ccc(NC(=O)Cc3ccccc3)cc2C1=O in the list: -9 | -5 | -0.6
O=C(c1ccc2c(c1)OCO2)N1CC(=O)N2[C@@H](CO)[C@H](c3ccc(C#Cc4ccccc4)cc3)[C@@H]2C1 in the list: 5 | -8 | 22
CN(C)C(=O)c1cccc(-c2ccc(C3[C@H]4CNC[C@@H]3N4CC3CCCCC3)cc2)c1 (stereo partly drawn) in the list: 4&8 | 4&-1 | 0.8&9.0
O=C(C1CCCC1)N1[C@H](CO)[C@@H]2c3ccccc3NC[C@@H]21 in the list: 1 | 0 | 2.2

Next section.
SMILES	rRNA inh HTS	rRNA inh HTS OD600	rRNA inh HTS RFP
CCCN1C[C@H](C)[C@@H](OC)CN(C)C(=O)c2cc(NC(=O)C3CCC3)ccc2OC[C@@H]1C	0	-2	-0.7
O=C(C1CCOCC1)N1CC(=O)N2[C@H](C1)[C@H](c1ccc(-c3ccccc3F)cc1)[C@@H]2CO	1	3	3.3
C[C@@H]1CN([C@H](C)CO)C(=O)c2cc(NC(=O)C3CCCCC3)ccc2O[C@@H](C)CCCCO[C@H]1CN(C)S(=O)(=O)c1ccc(F)cc1	-2	-7	2.7
CC(C)[C@@H]1COCn2nncc2CC[C@H](Cc2ccc(-c3ccccc3)cc2)C(=O)N1	2	-2	0.2
COc1ccccc1NC(=O)N1CC(=O)N2[C@H](CO)[C@H](c3ccc(C#Cc4ccc(F)cc4)cc3)[C@@H]2C1	3	-9	26
CNC(=O)C[C@@H]1CC[C@@H]2[C@H](COc3ccc(NC(=O)Nc4ccccc4OC)cc3C(=O)N2C)O1	-1	-4	-1.4
C[C@H]1CN([C@@H](C)CO)C(=O)Cc2cc(NS(=O)(=O)c3ccc(F)cc3)ccc2O[C@H]1CN(C)Cc1ccc(Cl)c(Cl)c1	-1	-5	3.7
CC=Cc1ccc2n(c1=O)C[C@H]1[C@H](CO)[C@@H](C(=O)NCCc3cn(C)cn3)N(C(=O)CC)[C@@H]21 (mixture of isomers)	1	3	-2.1
CO[C@H]1CN(C)C(=O)c2cc(NC(=O)C3CC3)ccc2OC[C@@H](C)N(CCc2ccccc2)C[C@H]1C	1	-2	-1.3
C[C@@H]1CN([C@@H](C)CO)S(=O)(=O)c2ccc(-c3cccnc3)cc2O[C@@H]1CN(C)Cc1cccnc1	0	-5	-0.1
C[C@@H]1CN([C@H](C)CO)C(=O)c2cc(C#CCN(C)C)cnc2O[C@H]1CN(C)S(=O)(=O)c1ccccc1	0	2	-1.2
C[C@@H]1CN([C@@H](C)CO)C(=O)c2cccc(NC(=O)C3CCOCC3)c2O[C@H]1CN(C)Cc1ccc2c(c1)OCO2	-8	-5	-1.1
CCCNC[C@@H]1[C@@H](c2ccc(C3=CCCCC3)cc2)[C@@H](CO)N1C(=O)C1CCC1	-2	-10	5.2
COc1ccccc1NC(=O)N1CC(=O)N2[C@H](C1)[C@H](c1ccc(C#Cc3ccc(F)cc3)cc1)[C@@H]2CO	2	8	7.0
COc1ccc(C#Cc2ccc3c(c2)[C@H]2[C@H](CCN2S(=O)(=O)C2=NC(C)C=N2)[C@@H](CO)N3C)cc1 (stereo partly drawn)	-2	4	-3.2
Cn1cnc(S(=O)(=O)N2CC[C@@H]3[C@H](CO)Nc4ccc(C#Cc5cccc(F)c5)cc4[C@@H]32)c1	-7	-18	13
C[C@@H]1CN([C@@H](C)CO)S(=O)(=O)c2ccc(C#Cc3ccncc3)cc2O[C@H]1CN(C)C	-3	-9	-2.0
CC(=O)N(C)C[C@H]1Oc2ncc(-c3ccc(C(=O)N(C)C)cc3)cc2C(=O)N([C@H](C)CO)C[C@@H]1C	8	15	-2.0
O=C(C1CCCC1)N1[C@@H](CO)[C@@H](c2ccccc2)C12CN(Cc1cccc(Cl)c1)C2	-54	-76	-3.1
CCC(=O)N1[C@H](CO)[C@@H](c2ccc(-c3cccc(F)c3)cc2)[C@H]1CNC(C)=O	0	3	-1.5
O=C(Cc1ccccn1)N1CC(=O)N2[C@@H](CO)[C@H](c3ccc(C#CC4CCCC4)cc3)[C@@H]2C1	2	-4	-0.8
COc1ccc2c3c([nH]c2c1)[C@H](CO)N(C(=O)C1CCOCC1)CC31CN(C(=O)NC(C)C)C1	5	8	-1.0
COc1cccc(NC(=O)N2CC(=O)N3[C@H](CO)[C@H](c4ccc(C5=CCCC5)cc4)[C@@H]3C2)c1	-8	-66	27
Cc1cccc(S(=O)(=O)N(C)C[C@H]2OCc3ccccc3-c3ccccc3C(=O)N([C@@H](C)CO)C[C@H]2C)c1	0	-13	5.7
CC(=O)N1[C@@H]2c3ccc(C4=CCCC4)c(=O)n3C[C@H]1[C@H](CO)[C@H]2C(=O)N[C@H](C)c1ccccc1	-2	-6	-0.3
CCC(=O)N1[C@H](CN(C)C(C)=O)[C@H](c2ccc(C3=CCCCC3)cc2)[C@@H]1CO	-1	-5	0.1
Cc1ccc(S(=O)(=O)Nc2ccc3c(c2)C(=O)N([C@@H](C)CO)C[C@@H](C)[C@@H](CN(C)C(=O)C2CCCCC2)OCCCC[C@H](C)O3)cc1	-4	-11	1.8
CN(C)CC(=O)N1[C@@H](CO)[C@@H](c2ccccc2)C12CN(C(=O)c1cccc(F)c1)C2	1	4	0.8
C[C@H](NC(=O)N(C)C[C@H]1OCc2ccccc2-c2ccccc2C(=O)N([C@H](C)CO)C[C@@H]1C)c1ccccc1	-2	5	-1.9
COC(=O)[C@H]1[C@H](CO)[C@H]2Cn3c(ccc(-c4ccccc4OC)c3=O)[C@H]2N1CC1CCCCC1	0	-20	15
CO[C@H]1CN(C)C(=O)c2cc(NC(=O)c3ccc4c(c3)OCO4)ccc2OC[C@H](C)NC[C@@H]1C	2	0	-1.4
CC(C)C(=O)Nc1ccc2c(c1)C(=O)N(C)[C@@H]1CC[C@H](CC(=O)NCCCN(C)C)O[C@H]1CO2	4	7	0.2
C/C=C/c1ccccc1[C@H]1[C@@H](C#N)N(c2ncc(CC)s2)[C@@H]1CO	-6	-18	-3.6
CN1C(=O)c2cc(NC(=O)C3CC3)ccc2OC[C@H]2O[C@@H](CC(=O)O)CC[C@H]21	5	10	-0.8
COCC(=O)N1CC2(C1)CN(C(=O)NC1CCCC1)[C@H](CO)c1c2c2ccc(OC)cc2n1C	1	3	-3.4
CCCNC(=O)N1CC2(C1)[C@H](c1ccccc1)[C@@H](CO)N2C(=O)C1CCCC1	1	5	-0.3
CC(C)C[C@H]1COCc2cn(nn2)CC[C@@H](Cc2cccc(Cl)c2)C(=O)N1	-2	-1	-0.8
Cc1cccc(-c2ccc(C3[C@@H]4CN(C(=O)C5CCC5)C[C@H]3N4)cc2)c1 (stereo partly drawn)	-35	-61	25
COC(=O)C[C@@H]1CC[C@H]2[C@H](COc3ccc(NS(=O)(=O)c4ccc(F)cc4)cc3C(=O)N2C)O1	0	-5	-3.8
CC=Cc1ccc2n(c1=O)C[C@H]1[C@H](CO)[C@@H](C(=O)Nc3ccccc3)N(CC)[C@@H]21 (mixture of isomers)	1	3	-0.9
O=C(c1ccccc1)N1CC(=O)N2[C@H](CO)[C@H](c3ccc(C#CCC4CCCC4)cc3)[C@H]2C1	-37	-61	4.6
CC(C)CC#Cc1ccc([C@H]2[C@@H](CO)N3C(=O)CN(C(=O)CN4CCOCC4)C[C@@H]23)cc1	5	3	-2.0
CCCNC(=O)N1C[C@H]2[C@@H](c3ccccc31)[C@H](CO)N2C(=O)NC(C)C	3	11	2.0
C[C@@H]1CN([C@@H](C)CO)C(=O)c2cc(NS(=O)(=O)c3cn(C)cn3)ccc2O[C@H]1CN(C)C(=O)Nc1ccc(F)cc1	0	8	-0.4
CC(C)NC(=O)Nc1ccc2c(c1)CC(=O)N([C@H](C)CO)C[C@@H](C)[C@H](CN(C)S(=O)(=O)c1ccc(F)cc1)O2	2	5	0.7
O=C(c1ccncc1)N1CC(=O)N2[C@H](C1)[C@@H](c1ccc(-c3cccnc3)cc1)[C@@H]2CO	5	8	-0.1

Bioassay records from PubChem BioAssay.
